Screening results from PubChem BioAssay.
AF4-AF9 inh – blocks AF4 peptide binding to human AF9; P42568; AlphaScreen, biotin-AF4 peptide binding to FLAG-AF9; inhibition, % at 10 µM; actives 0.47% (n = 350,000); AID 651704;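 active = every replicate reaching a set inhibition limit, whatever the replicate mean, cut at about 25% in these data; inconclusive = mean inhibition reaches that limit but some replicates miss it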;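 note: 0% = plate neutral control median and 100% = total signal loss; the record names both 10 and 1 µM as test concentration; the first replicate is given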
Target sequence (P42568 whole entry, looked up): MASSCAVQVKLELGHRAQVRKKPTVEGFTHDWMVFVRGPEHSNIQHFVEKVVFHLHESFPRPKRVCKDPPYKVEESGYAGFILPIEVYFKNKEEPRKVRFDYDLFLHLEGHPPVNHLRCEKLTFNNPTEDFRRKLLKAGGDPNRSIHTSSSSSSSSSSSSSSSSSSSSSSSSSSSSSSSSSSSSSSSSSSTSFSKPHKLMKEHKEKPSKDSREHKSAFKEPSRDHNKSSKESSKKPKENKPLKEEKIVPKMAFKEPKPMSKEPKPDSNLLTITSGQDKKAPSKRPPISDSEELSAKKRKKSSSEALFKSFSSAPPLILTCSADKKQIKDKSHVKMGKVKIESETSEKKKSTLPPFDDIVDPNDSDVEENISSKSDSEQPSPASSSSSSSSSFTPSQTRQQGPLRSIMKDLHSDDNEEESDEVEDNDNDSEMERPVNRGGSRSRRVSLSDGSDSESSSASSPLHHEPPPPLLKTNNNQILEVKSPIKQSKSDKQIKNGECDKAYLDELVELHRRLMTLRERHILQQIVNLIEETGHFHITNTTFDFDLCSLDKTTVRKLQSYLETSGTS
Calb FLC – affects C. albicans growth with fluconazole; C. albicans CaCi-2 (fluconazole-resistant clinical isolate) + fluconazole, Alamar Blue growth, 48 h; growth inhibition, % (concentration not given with the values); actives 0.57% (n = 300,000);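 active = most replicates above 75%; inconclusive = exactly half above 75%; inactive = most below 75%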;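 note: all wells also contain fluconazole at 8 µg/ml as a sub-toxic cotreatment; 0% = median of DMSO wells and 100% = median of geldanamycin control wells; wells of about 8 µL received 7.5 nL stock; the first replicate is given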
T cruzi repl – T. cruzi replication inhibition | AID 1885 | actives 1.4% (n = 300,000) | inhibition, % (concentration not given with the values) | T. cruzi beta-gal in NIH3T3, luminescence, 90 h;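 active = mean inhibition across valid replicates above about 55%, limit read from the data; inconclusive = mean below that limit but half or more replicates reach it; inactive = mean below it, under half of replicates reach it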;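 note: signal also drops with host cell toxicity which is not excluded here; 0% = plate median of DMSO wells and 100% = zero luminescence signal; higher percent means less beta-gal luminescence so fewer parasites; stock transfer was 50 nL into about 50 µL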
Vif TR-FRET – HIV-1 Vif–A3G interaction blockers – biochemical, TR-FRET, GST-Vif 1-94, biotin-A3G peptide, dose response retest, primary screen (AID 1117319) | TR-FRET GST-Vif / biotin-A3G peptide binding; higher % means a stronger effect; test concentration not given here; strong numbers were not always called active | inhibition, %, or IC50 in µM where a hit was titrated | actives 0.57% (n = 260,000);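 active = above the screen mean plus three standard deviations and confirmed in dose response; inconclusive = results disagree or hit not tested in dose response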;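 note: Vif residues 1-94 fused to GST binding biotinylated APOBEC3G peptide 110-148; 0% = full assay without inhibitor and 100% = GST in place of GST-Vif; retest series ran down from 100 µM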
Beta apoptosis – beta cell apoptosis inhibition. INS-1E cytokine-induced death, ATP luminescence, 48 h; percent of positive-control rescue, neutral wells zero. protection from apoptosis, % (test concentration not listed). actives 0.8% (n = 300,000). AID 435005;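 active = all replicates at 75% or more, or half of them and the mean; inconclusive = half reach 75% but not the mean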;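 note: 0% = cytokine-treated negative control wells and 100% = positive control rescue; higher means more ATP so stronger rescue from cytokine killing; wells of about 40 µL received 100 nL stock; the first replicate is given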
rRNA inh HTS – inhibits bacterial ribosomal RNA function over humanized ribosomes; actives 1.6% (n = 350,000); AID 720706; E. coli WT GFP vs humanized-ribosome RFP mutants, fluorescence, 24 h; hits give low values; DMSO median 0, no signal -100; GFP signal change (wild-type ribosome), % (no concentration beside the values);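 active = significant combined selectivity score with lowered wild-type GFP, culture density cut under 30%, mutant RFP and density less affected; inactive = any of these conditions unmet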; note: one replicate is shown; some compounds called inactive have numbers as strong as hits
RanGTP-Imp inh – disruptors of Ran-importin-beta complex formation – biochemical, FRET, CFP-Ran, YFP-importin-beta, homogeneous, primary screen; cell-free CFP-Ran/YFP-importin-beta FRET ratio; inhibition, % (test concentration not listed); actives 1.1% (n = 300,000); AID 2216;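 active = most replicates above 15%; inconclusive = exactly half above 15%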;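 note: 0% = DMSO wells and 100% = Ran loaded with GDP instead of GTP; wells of about 40 µL received 100 nL stock; the first replicate is given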
A1 inh – inhibitors of the anti-apoptotic protein A1, read as caspase activation | caspase activation, % (concentration not given with the values) | actives 0.066% (n = 330,000) | MEF A1-2A-BIM cells, Caspase-Glo 3/7 luminescence, 3 h; percent of clofoctol response, vehicle zero;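 active = over half of replicate activation scores above 10%, or exactly half above 10 with the replicate mean above 10; inconclusive = replicate mean below 10 yet half the replicates above 10; inactive = over half of replicates below 10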;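 note: wells of about 30 µL received 50 nL stock; many hits fall short of the cut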
rRNA inh HTS OD600 – second read-out of rRNA inh HTS, no call of its own (marks repeat the call); OD600 change, %; measured here: OD600 growth;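 optical density of the mix in the first replicate; 0 = DMSO median and -100 = no signal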
rRNA inh HTS RFP – recorded beside rRNA inh HTS, whose call it bears; RFP signal change, %; measured here: RFP humanized mutant strains;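 first replicate; 0 = DMSO median and -100 = no signal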
* = called active by the depositor; ? = inconclusive; . = not tested or not shown; & = joins results of further samples. These rows are one share of the data (hit frequency here may not be typical).

SMILES	AF4-AF9 inh	Calb FLC	T cruzi repl	Vif TR-FRET	Beta apoptosis	rRNA inh HTS	rRNA inh HTS OD600	rRNA inh HTS RFP	RanGTP-Imp inh	A1 inh
Cc1ccc(C)c(OCC(=O)Nc2ccncc2)c1	-5.2	-0.9	-22.7	.	1.3	4.7	3.5	-0.8	0.6	-0.5
Cc1cc2nnc(SC3CCOC3=O)n2c2ccccc12 (stereo unspecified)	.	39.8	-4.1	6.3%	6.6	.	.	.	0.5	0.1
Cn1ccc(-c2cc(C(=O)O)c3ccccc3n2)n1	0.0	-1.2	-13.9	0.8%	-0.1	12.6	10.9	1.5	-0.8	1.9
N#Cc1c2ccc(OCC(N)=O)cc2n2ccccc12	-4.0	23.6	2.4	-1.7%	-1.2	-2.2	-4.2	-1.2	55.0*	-0.1
O=C(CN(C(=O)CCC(=O)Nc1nccs1)c1ccccc1F)NCc1ccc(F)cc1	1.0	-3.2	3.9	.	1.2	11.7	5.3	0.2	-0.8	0.2
C[C@@H]1CN([C@@H](C)CO)C(=O)c2cc(NC(=O)CCN3CCOCC3)ccc2O[C@@H]1CN(C)C(=O)Nc1ccccc1	-1.4&-0.5	.	.	.	-1.4	8.1&-0.6	16.9&4.0	-1.4&2.8	.	-0.3
COc1ccc(C(=O)Nn2c(SCC(=O)NC3CCCCC3)nc3ccccc3c2=O)cc1	.	-47.0	-9.9	-0.6%	.	.	.	.	-0.5	0.6
CN(C)Cc1cc(O)c(CN(C)C)cc1O	-3.6	-3.6	-7.7	?	.	7.8	4.9	3.5	1.4	0.6
COC(=O)c1ccc(N2C(=O)CC(N3CCN(C(=O)c4ccco4)CC3)C2=O)cc1 (stereo unspecified)	.	-9.8	-5.7	3.0%	-0.8	.	.	.	-1.6	-0.2
COc1cc(/C=N/NC(=O)c2cc(-c3ccccc3Cl)nc3ccccc23)cc(OC)c1O	3.0	3.1	1.5	.	64.7	7.9	9.1	-2.2	0.7	1.0
Nc1nc(-c2cccnc2)nn1C(=O)c1ccco1	.	2.2	-1.3	0.5%	.	.	.	.	1.0	.
CCOC(=O)c1c(-c2ccccc2Cl)csc1NC(=O)c1cc(S(=O)(=O)N2CCOCC2)ccc1C	.	2.0	46.3	.	.	.	.	.	-5.2	0.6
CCN(CC)C(=O)c1cncc(C(=O)N(CC)CC)c1-c1ccccc1	.	-16.3	-0.3	5.8%	-10.1	.	.	.	0.4	1.1
COc1ccc(CN(C(=O)c2snc(C(N)=O)c2N)C(C(=O)NC2CCCC2)c2ccc(OC)c(OC)c2)cc1 (stereo unspecified)	0.6	33.4	-8.0	-3.9%	7.2	3.5	3.8	-0.3	5.2	1.1
O=C(COC(=O)CCc1c[nH]c2ccccc12)NC1CCS(=O)(=O)C1 (stereo unspecified)	.	-0.4	-5.3	30.4%	-1.5	.	.	.	-3.2	-0.5
Cc1ccc(S(=O)(=O)N(C)C)cc1NC(=O)c1n[nH]c(=O)c2ccccc12	6.4	0.0	-16.4	.	-4.0	-5.1	-1.7	-1.4	-3.4	-0.4
Cc1nc2c(-c3ccc(Cl)cc3)cnn2c2c1CCC2	-3.1	-2.5	-9.2	-0.6%	0.4	10.9	9.2	-0.4	4.0	0.7
Cc1ccc(Nc2nnc(SCC(=O)c3ccc(Br)s3)s2)c(C)c1	-0.7	-3.6	-4.7	-35.5%	-4.1	.	.	.	5.9	-1.2
CC(C)(C)C(=O)Nc1cc(C(F)(F)F)ccc1N1CCOCC1	.	.	-15.9	-3.5%	0.2	.	.	.	-1.1	-0.1
Cc1ccc(Cl)cc1NC(=O)Cn1cccc1	.	-18.2	0.9	9.4%	-8.2	.	.	.	0.1	0.9
COc1ccc(S(=O)(=O)NCCN2CCNC2=O)cc1OC	-0.5	2.0	4.0	2.3%	0.3	7.1	9.1	-2.7	8.8	-0.5
COc1cc(/C=N/NC(=O)c2ccoc2C)ccc1OCCN1CCCCC1	13.0	-0.7	10.9	.	-1.1	19.7	20.6	2.8	5.8	-0.1
COc1ccc2c(c1)N(C)/C(=C/c1cccc[n+]1C)S2	1.0	-7.1	56.0*	.	104.8*	49.4	-28.8	1.0	-1.5	-0.1
NC(=S)C1COc2ccccc2O1 (stereo unspecified)	-1.1	-8.6	-7.0	.	-4.5	13.2	10.2	0.2	-1.8	-0.6
CC(C)(CO)Nc1ccc([N+](=O)[O-])cc1[N+](=O)[O-]	.	-6.0	-4.3	2.4%	6.0	.	.	.	2.5	-0.4
Next section
SMILES	AF4-AF9 inh	Calb FLC	T cruzi repl	Vif TR-FRET	Beta apoptosis	rRNA inh HTS	rRNA inh HTS OD600	rRNA inh HTS RFP	RanGTP-Imp inh	A1 inh
CC(C)Oc1ccc(C(=O)NC(=S)Nc2ccc(Cl)c(C(=O)O)c2)cc1	-0.4	0.1	2.0	-6.2%	-2.5	-20.6*	-7.1*	2.3*	0.6	-0.4
CCN1CCN(CCCNC(=O)CCc2nc(-c3ccc(OC)cc3)no2)CC1	-2.6	-8.5	-2.3	15.8%	-2.1	9.3	4.8	-0.3	4.1	-0.3
CCOC(=O)N1CCC(NC(=O)CCC(=O)N2CC(C)Oc3ccc(C)cc32)CC1 (stereo unspecified)	.	-18.6	-12.3	17.2%	4.0	.	.	.	0.7	1.5
CS(=O)(=O)Nc1ccc(C(=O)Nc2ccccc2Cl)cc1	0.2	-7.6	-16.6	.	4.2	-10.7	-2.7	-2.2	2.3	0.5
CCCOc1ccc(Cc2nn3c(=O)/c(=C/c4ccco4)sc3nc2=O)cc1	.	17.3	-23.2	1.5µM*	0.2	.	.	.	2.6	0.5
CC(=O)Nc1cccc(C(=O)OCC(=O)c2ccc3c(c2)OCO3)c1	-15.6	4.9	-5.8	2.2%	2.2	-1.4	0.4	-2.1	8.2	-7.4
CCS(=O)(=O)n1nc(-c2ccc(Cl)cc2)nc1SCc1ccccc1	.	-14.4	8.6	?	-2.2	.	.	.	2.8	1.4
CC(C)(C)OC(=O)NCCCC1=CC2=CC(=O)C(C)(OC(=O)C3CCCC3)C(=O)C2=CO1 (stereo unspecified)	.	4.0	-21.0	.	-5.6	.	.	.	-27.1	-0.2
COc1ccccc1NC(=O)C(C)Nc1ccc(C)c(Cl)c1 (stereo unspecified)	4.2	9.8	.	-6.2%	-13.8	-38.8	-60.2	-10.4	.	-0.3
O=C(OCC(=O)N1CCCC1)c1cc2c(cc1[N+](=O)[O-])OCCO2	3.1	.	.	.	-6.4	5.9	5.9	0.7	.	0.3
CCOC(=O)N1CCN(C(=O)CN(Cc2ccc(Cl)cc2)S(C)(=O)=O)CC1	.	0.0	.	?	-4.6	.	.	.	8.6	0.8
COCCNc1nc2ccccc2nc1NS(=O)(=O)c1ccc(C)cc1C	.	10.0	10.0	3.2%	5.9	.	.	.	1.3	0.0
COc1ccc(N(C)S(=O)(=O)c2cccc(C(=O)OCC(=O)c3c(N)n(C)c(=O)n(C)c3=O)c2)cc1	0.7	.	.	-9.9%	5.4	-11.7	-8.6	10.4	.	0.0
CCn1c(SCC(=O)Nc2ccccc2C(=O)OC)nnc1-c1cccc(C)c1	.	21.1	6.1	-3.4%	10.8	.	.	.	-1.1	-0.4
Cc1nn(-c2nc(-c3ccco3)cc(C(F)(F)F)n2)c(C)c1Cl	.	11.2	-14.5	-5.4%	2.7	.	.	.	?	0.0
CC(=O)c1c(C)[nH]c(C(=O)OCC(=O)Nc2ccc3c(c2)OCCO3)c1C	0.1	.	.	.	4.1	4.7	12.2	1.2	.	0.4
O=S(=O)(Nc1cccc(S(=O)(=O)N2CCCCCC2)c1)c1ccc(F)cc1F	0.1	.	.	-10.3%	0.3	-47.3	-47.5	-4.4	.	-0.9
CCOCC(=O)OCC(=O)Nc1cc(OC)c([N+](=O)[O-])cc1C	-1.5	10.3	-6.2	7.7%	-13.4	10.3	4.4	-0.7	2.5	0.3
O=C(O)CC(NC(=O)C1c2ccccc2Oc2ccccc21)c1ccc(Cl)cc1 (stereo unspecified)	-5.8	34.7	-15.6	.	-2.9	.	.	.	1.5	-0.3
CCc1noc(C)c1C(=O)Nc1ccc(S(=O)(=O)N2CCC(C)CC2)cc1	-3.7	.	18.0	-4.4%	5.3	-6.8	-33.5	-0.8	2.9	-0.3
COc1ccc(CCNC(=O)C2CCN(S(=O)(=O)c3ccc(Cl)cc3)CC2)cc1OC	.	10.2	-12.2	-4.8%	-2.6	.	.	.	?	1.5
CCOC(=O)N1CCN(C(=O)C2CC(c3ccc(F)cc3)=NO2)CC1 (stereo unspecified)	-3.5	-2.6	-8.8	10.0%	-9.4	7.2	9.8	0.6	-0.4	-0.8
Cc1ccc(S(=O)(=O)Cn2nnnc2C(c2ccccc2)N2CCN(c3ccccc3)CC2)cc1 (stereo unspecified)	.	-0.6	17.3	0.9%	0.0	.	.	.	0.5	0.2
COc1ccc(CC(=O)Nc2cccc(-c3ccc4nnc(C)n4n3)c2)cc1	1.6	-0.4	0.6	3.0%	4.9	-25.2	-21.1	-5.2	-1.1	2.5
Cc1ccc(-c2cc(C(=O)O)c3sc(N4CCCCC4)nc3n2)cc1	.	9.5	-6.0	-1.1%	5.1	.	.	.	?	0.1
Later entries
SMILES	AF4-AF9 inh	Calb FLC	T cruzi repl	Vif TR-FRET	Beta apoptosis	rRNA inh HTS	rRNA inh HTS OD600	rRNA inh HTS RFP	RanGTP-Imp inh	A1 inh
COc1ccc(CCNC(=O)COC(=O)c2ccccn2)cc1	-2.2	.	.	1.4%	-7.6	-20.5	-25.6	6.3	.	?
NC(=O)Cc1ccc2c(c1)[nH]c1ccccc12	-11.8	-0.6	-14.8	-61.1%	-0.7	13.0	15.9	-1.2	5.9	0.0
COc1ccccc1C(=O)N/N=C(\C)c1cccnc1	-3.3	8.5	1.4	.	1.3	9.4	4.7	1.1	0.6	-0.2
O=C(c1ccc(Cl)cc1)N1CCN(S(=O)(=O)/C=C/c2ccccc2)CC1	4.6	.	.	-2.7%	-0.8	.	.	.	.	-0.3
COc1ccc(N2CCN(CCNC(=O)Nc3ccc(C)cc3Cl)CC2)cc1	5.3	6.8	28.5	2.8%	4.7	8.1	5.2	-3.1	?	1.3
COC(=O)c1ccc(S(=O)(=O)N2CCc3ccccc3C2)cc1	-3.4	0.2	16.9	.	2.2	6.5	2.6	2.6	-0.5	0.4
CS/C(=N\N(C)C(N)=O)c1ccccc1	.	-14.7	-10.3	-0.1%	-7.1	.	.	.	-5.1	-0.2
CC1(NC(=O)CC(c2ccccc2)(c2ccccc2)c2ccccc2)CCN(Cc2ccc(-c3ccccc3)cc2)C1=O (stereo unspecified)	-5.2	.	.	.	18.3	4.7	1.3	-1.9	.	-0.3
CC(=O)c1cccc(NC(=O)NC(C)C2CCCO2)c1 (stereo unspecified)	.	?	-2.6	-4.1%	-4.3	.	.	.	-1.3	1.7
CN(C)/C=C/C(=O)c1cnc2n(c1=O)CCS2	-0.6	-1.9	-9.0	5.0%	-1.2	13.9	11.7	2.0	-1.4	0.2
O=C(O)C1CC(c2ccc(F)cc2)=NO1 (stereo unspecified)	.	-7.8	-28.2	?	-0.1	.	.	.	2.8	0.2
